miR-21 reporter = raises the signal of a miR-21 reporter. HeLa miR-21 FLuc reporter, luciferase, 48 h. Potency, µM (series often up to 38.3 µM), for the others: at the highest dose reporter change, positive = more light. 340,000 tested, under 10 active; active = well fitted rising curve with a large enough effect; inconclusive = small, poorly fitted or top-dose-only effect; inactive = no such curve, though single readings can be large or run the other way;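 further: % of control where 0% means no effect; miR-21 action dims this reporter so a rising signal means less miR-21 action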
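HeLa cells stably expressing CMV-driven firefly luciferase with a downstream miR-21 binding sequence, endogenously expressing miR-21, were treated with titrations (up to about 40uM final) for 48 hours at 37 degree Celsius. Luciferase luminescence was read after lysis.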
Rango release inh = inhibitors of RanGTP-induced Rango-importin beta complex dissociation | O95149+P62826 | Biochemical FRET Rango-importin beta, RanGTP-induced dissociation | Potency, µM (titrated, usually from 46.1 µM), for inactives: at the top dose activity change, negative = inhibition | actives 0.071% (n = 340,000) | AID 540253; active means falling FRET ratio curve, often poorly fitted, with flat reads before Ran was added; inconclusive means other falling curves, or compound fluorescence or quenching; inactive means flat or rising ratio curve;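 further: potency means the concentration at half of the fitted maximal effect; % of control where 0% means no effect; nearly all actives have a fitted effect of over 45% in size; -100% = wells without RanGTP and RCC1; the record marks most hits as doubtful in a second field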
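FRET read at 45 min, room temperature: inhibitors block the CFP/YFP signal rise when RanGTP (0.6 uM Ran, 2 mM GTP, 0.2 uM RCC1) frees Rango (0.1 uM) from importin beta (0.25 uM). Pre-read after 5 min compound exposure flags interference.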
GLA inh pH 4.5 = inhibitors of human alpha-galactosidase A at pH 4.5; P06280; purified enzyme, 4-MU-alpha-Gal fluorescence, pH 4.5; activity change, negative = inhibition, % at 105 µM; 230,000 tested, under 10 active; inconclusive = small, poorly fitted or top-dose-only inhibition, or a rising curve; inactive = flat fitted curve, though single readings scatter; no compound was filed as active;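 further: 0% = full activity with enzyme and -100% = basal without enzyme; dose as in the result columns while the protocol names 77 µM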
Rango-impB inh = inhibitors of Rango-importin beta complex formation. Q14974. Rango CFP/YFP FRET sensor + importin beta, 45 min. Potency, µM (highest dose often 92.2 µM), without a hit: at the top dose inhibition of complex formation. actives 0.031% (n = 340,000); active = rising FRET ratio curve, often small or poorly fitted; inconclusive = mostly compound fluorescence or quenching in the first reads; inactive = flat curves in all reads;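 further: potency means the concentration at half of the fitted maximal effect; 0% = DMSO wells and 100% = buffer wells lacking importin beta; nearly all actives have a fitted effect of over 15% in size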
Target sequence (Q14974 whole entry, looked up): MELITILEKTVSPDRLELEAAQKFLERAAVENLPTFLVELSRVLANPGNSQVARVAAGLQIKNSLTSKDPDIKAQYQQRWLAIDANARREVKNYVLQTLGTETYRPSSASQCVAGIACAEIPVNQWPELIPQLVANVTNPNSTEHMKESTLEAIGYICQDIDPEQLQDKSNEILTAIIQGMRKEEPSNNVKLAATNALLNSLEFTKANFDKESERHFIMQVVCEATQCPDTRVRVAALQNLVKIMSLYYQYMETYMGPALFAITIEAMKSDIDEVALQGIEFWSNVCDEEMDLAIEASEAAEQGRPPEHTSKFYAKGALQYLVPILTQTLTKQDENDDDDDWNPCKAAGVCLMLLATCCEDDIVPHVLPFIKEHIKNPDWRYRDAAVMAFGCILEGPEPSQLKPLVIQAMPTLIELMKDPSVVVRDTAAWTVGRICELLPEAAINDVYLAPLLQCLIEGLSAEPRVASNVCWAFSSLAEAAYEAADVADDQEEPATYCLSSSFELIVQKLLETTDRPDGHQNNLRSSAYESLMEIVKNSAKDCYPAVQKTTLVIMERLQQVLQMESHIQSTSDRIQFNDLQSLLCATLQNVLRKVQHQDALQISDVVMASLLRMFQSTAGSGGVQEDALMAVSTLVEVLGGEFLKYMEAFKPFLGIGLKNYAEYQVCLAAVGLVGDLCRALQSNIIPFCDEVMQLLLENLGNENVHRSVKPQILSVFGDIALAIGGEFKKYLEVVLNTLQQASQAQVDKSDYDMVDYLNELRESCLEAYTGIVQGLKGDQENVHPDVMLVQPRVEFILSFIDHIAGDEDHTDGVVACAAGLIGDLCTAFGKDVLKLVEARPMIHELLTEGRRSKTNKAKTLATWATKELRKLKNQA
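FRET biosensor Rango (snurportin 1 IBB between N-terminal EYFP and C-terminal Cerulean), 50 nM in PBS/1 mM DTT/0.02% Tween-20/0.1% BSA, preincubated 5 min RT with compound; 0.125 microM importin beta added, 45 min RT, CFP/YFP FRET ratio read.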
Numbers without * were called inactive; ? = inconclusive; / = not tested or not shown; & = joins results of further samples; [ ] = dose if it differs, or a comment.

miR-21 reporter | Rango release inh | GLA inh pH 4.5 | Rango-impB inh | SMILES
/ | 7% | / | 0.8% | COc1ccccc1N1CCN(CC(=O)Nc2ccccc2C(=O)NC(C)c2ccccc2)CC1 (configuration not stated)
8% | -17% | 3 | ? | CSC1=C(C#N)C(CC(C)C)C2=C(CCCC2=O)N1 (configuration not stated)
0%&-4% | -5% | -11[21.1 µM] | -0.9% | Cc1ccc(NC(=O)Cn2c(CCC(=O)O)ccc2-c2cccs2)cc1Cl
-17% | -2% | / | 2.9% | Cc1ccc(SCC(=O)NC(C)c2ccccc2)cc1 (configuration not stated)
-3% | 5% | -13 | -2.7% | CC(=O)Nc1ccc(NC(=S)NC(=O)c2ccc([N+](=O)[O-])cc2)cc1
8% | 6% | 1 | ? | CCO[C@H]1OC(C(=O)NC2CC2)=C[C@@H](c2c[nH]c3ccccc23)[C@@H]1CCCO
-1% | 6% | -2 | -2.7% | CC1CN(C(=O)CCN2C(=O)c3ccccc3C2=O)CC(C)O1 (configuration not stated)
-2% | -2% | -1 | -1.6% | COC(=O)c1ccsc1NC(=O)CN1CCN(Cc2ccc3c(c2)OCO3)CC1
-6% | -8% | 5 | -2.0% | CNC(=S)NNC(=O)c1sccc1OCc1ccccc1
1% | 2% | -6 | 2.3% | O=S(=O)(c1cccc(-c2nnc3n2CCCCC3)c1)N1CCOCC1
-15% | 2% | 5 | 6.8% | COc1ccc(CCNC(=O)CSc2ncnc3c2oc2ccccc23)cc1OC
5% | -1% | -6 | 1.3% | Cc1ccc(C2(c3noc(CN4CCOCC4)n3)CCCC2)cc1
/ | 7% | / | 2.3% | CC(C)(C)OC(=O)N(CCc1ccccc1)Cc1ccccc1OCc1cccc(NC(=O)C2CC2)c1
0% | -2% | -2 | 1.6% | Cc1cccc(C)c1NC(=O)C[n+]1cc(-c2ccccc2)n2c1CCC2
/ | 12% | / | 4.8% | CC1CN(C2CCCCC2)C(=S)NC1=O (configuration not stated)
/ | 13% | / | -3.7% | Cc1ccc([N+](=O)[O-])cc1S(=O)(=O)Nc1ccc(C(=O)N2CCN(C(=O)c3ccco3)CC2)cc1
/ | 24% | / | 1.6% | Cc1cccc(C(=S)N2CCOCC2)n1
0% | 1% | / | 2.5% | CCCCc1nc2cc(C(=O)NCc3cn(C)nc3C)ccc2o1
-13% | 3% | 3[21.1 µM] | -2.2% | CCc1ccc(NC(=O)C(=O)N/N=C(\C)CC(=O)NCCOC)cc1
-4% | -9% | ? | -7.8% | COc1ccc(S(=O)(=O)N2CCN(CC(=O)Nc3cccc(F)c3)CC2)cc1
0% | ? | 3 | ? | Cn1c(NNC(=O)c2ccccc2F)cc(=O)n(C)c1=O
-53% | 1% | -6 | 6.9% | Cc1ccc(Nc2n[nH]c(C)c2[N+](=O)[O-])cc1
-4% | 11% | 5 | -0.3% | COCCN1C(=O)c2ccccc2C(C(=O)NCCN(C)C)C1c1ccc(F)cc1 (configuration not stated)
-8% | ? | 3 | ? | Cc1ccc(-n2[nH]c(C)c(C=Nc3ccc4[nH]c(=O)[nH]c4c3)c2=O)cc1C
-2% | 25% | -5 | -5.2% | CCOC(=O)c1[nH]ncc1CN1CCCC(C(=O)c2cc(Cl)ccc2OC)C1 (configuration not stated)
0% | 0% | 6 | -2.1% | CCNC(=O)NC(=O)C(C)OC(=O)Cc1coc2cc3c(cc12)CCC3 (configuration not stated)
-2% | 1% | -12 | -0.6% | O=C(Nc1ccc(-c2nnc(-c3ccco3)o2)cc1)C(c1ccccc1)c1ccccc1
-1% | -25% | -6 | 0.3% | CCN(CC)c1cc(Cl)nc(N)n1
-18% | -2% | 7 | -1.8% | CC(C)Cn1c(SCC#N)nc2ccccc2c1=O
-2% | 6% | -17 | -0.3% | CC(C)(C)N(NC(=O)OCc1ccccc1)C(=O)c1ccccc1Cl
14% | 3% | / | 5.7% | COc1ccc(CC(=O)N2CCN(c3ccccc3F)CC2)cc1OC
-7% | -1% | 0 | -1.3% | NS(=O)(=O)c1cccnc1Nc1c(Cl)cccc1Cl
1% | -7% | -2 | 4.2% | O=C(O)c1[nH]c2ccc(Br)cc2c1CCN1C(=O)c2cccc([N+](=O)[O-])c2C1=O
-10% | -5% | / | -4.6% | Cc1ccc(NC(=O)C2CCN(C(=O)[C@@H]3Cc4ccccc4CN3)CC2)c(C)c1
-1% | 7% | 4 | 1.0% | C#CCOCCOCCOCCNc1nc(N2CCN(C(=O)C([C@@H](C)CC)n3cc(C(N)Cc4ccc(O)cc4)nn3)CC2)nc(N2CCN(C(=O)[C@H](CCC(=O)O)n3cc(C(N)Cc4ccc(O)cc4)nn3)CC2)n1 (some centres not stated)
-9% | -19% | 3 | 2.8% | Cc1ccc(S(=O)(=O)N/N=C\C=C\c2ccccc2)cc1
-19% | 2% | / | 0.8% | Cc1ccc(NC(=O)Nc2cnccn2)c(C)c1
0% | -12% | / | -1.7% | CCCc1cc(=O)oc2cc(OCC(=O)N3CCOCC3)c(Cl)cc12
2% | -3% | -12 | -3.0% | CC(=O)c1ccc(C(=O)N2CCc3c([nH]c4ccccc34)C2c2cccc(C)n2)s1 (configuration not stated)
-3% | 2% | / | 0.4% | Cc1ccnc(NS(=O)(=O)c2ccccc2)c1
/ | 11% | / | 7.9% | Cc1onc(-c2c(F)cccc2Cl)c1C(=O)NCc1ccc(S(N)(=O)=O)cc1
0% | 11% | -5 | 0.0% | CCN(CC)C(=O)C1CCCN(c2ccc([N+](=O)[O-])cc2/C=N/NC(=O)c2ccccc2)C1 (configuration not stated)
-8% | -10% | -5 | -0.8% | O=C(CC1CCCC1)NCCc1cn2ccccc2n1
26% | 3% | -2 | 5.0% | COc1cc(CNCCc2ccc(S(N)(=O)=O)cc2)ccc1OCc1ccc(Cl)cc1
-33% | 0% | -10 | ? | COc1ccc(C(=O)/C=C/N2CCCCC2)cc1OC
/ | 25% | / | 2.4% | CC(NC(=O)C(NS(=O)(=O)c1cccs1)C(C)C)c1ccc(S(N)(=O)=O)cc1 (configuration not stated)
-22% | -15% | -27 | -1.0% | O=C(CSc1ccccc1)N(c1ccc(Br)cc1)c1nccs1
-8% | -4% | -6 | -1.7% | O=c1[nH]c(N/N=C/c2cc3c(cc2[N+](=O)[O-])OCO3)nc2ccccc12
-3% | -1% | -1 | -4.9% | CC(NC(=O)c1ccc(Cl)cc1)c1nnc(SCc2ccc([N+](=O)[O-])cc2)n1C (configuration not stated)
-3% | 1% | -2 | -0.1% | CS(=O)(=O)c1ccc(C(=O)Nc2cc(S(C)(=O)=O)ccc2Cl)cc1

Single records, as listed above.
CCCc1cc(=O)oc2cc(OCC(=O)N3CCOCC3)c(Cl)cc12 across the screens: miR-21 reporter: 0%; Rango release inh: -12%; GLA inh pH 4.5: /; Rango-impB inh: -1.7%
CCN(CC)C(=O)C1CCCN(c2ccc([N+](=O)[O-])cc2/C=N/NC(=O)c2ccccc2)C1 (configuration not stated) across the screens: miR-21 reporter: 0%; Rango release inh: 11%; GLA inh pH 4.5: -5; Rango-impB inh: 0.0%

(continued)
miR-21 reporter | Rango release inh | GLA inh pH 4.5 | Rango-impB inh | SMILES
/ | -1% | / | -1.1% | COc1cccc(CN(C)CC(=O)Nc2cccc(S(=O)(=O)N(C)c3ccccc3)c2)c1OC
1% | 8% | -1 | -3.8% | C/C=C/Cn1c(Br)nc2c1c(=O)n(C)c(=O)n2C
-47% | -4% | -4 | 0.7% | O=C(Nc1cc(N2CCCCC2)ncn1)c1ccccc1
/ | 0% | / | 1.9% | Cc1cc(C)c(NC(=O)COC(=O)Cn2nc(-c3ccccc3)oc2=O)c(C)c1
-58% | ? | -7 | ? | Cc1cc(N/C=C/C(=O)c2cccs2)ccc1F
-4% | 2% | 1 | -1.3% | FC(F)(F)c1ccccc1NC(=S)NN1CCOCC1
-2% | -16% | / | 1.8% | COCCCN1CC(=O)N2C(c3ccc(C)cc3)c3[nH]c4ccccc4c3C[C@H]2C1=O (some centres not stated)
-4% | -5% | -8 | -1.7% | CN(C)CC(O)CN(c1ccccc1)c1ccccc1 (configuration not stated)
-11% | 8% | -19 | -1.1% | CCNC(=O)c1ccc(-n2nc(C)cc2-c2ccccc2)cc1
-1% | -13% | -12 | 0.1% | CCN(CC)C(=O)CSc1nc2ccccc2c(=O)n1CC
-19% | -3% | 6 | -3.5% | CCOc1ccc(C(=O)NCc2ccccc2OC)cc1
-2% | -8% | -11 | -2.6% | Cc1cc(C)n(C(=O)CCCCCC(=O)n2nc(C)cc2C)n1
-3% | -11% | 6 | -2.8% | Fc1cccc(CN2CCN(Cc3nc(-c4cnccn4)no3)CC2)c1
16% | 0% | -3 | -1.1% | CCOC(=O)c1ccc(NC(=O)CCc2nc(-c3ccc(Cl)cc3)no2)cc1
-12% | 1% | 0 | -0.4% | O=C(O)C1CC(=O)N(c2ccc(OCc3ccccc3)cc2)C1 (configuration not stated)
-1% | -2% | / | -4.3% | CCOC(=O)COc1ccc2c(c1)c(C(C)=O)c(C)n2-c1ccccc1
-4% | 0% | / | 0.0% | Cc1ccc(-c2c(C(=O)N/N=C/C3CCCCC3)nnn2-c2nonc2N)cc1
-3% | -4% | -5 | 3.5% | COc1cc(C(O)P(=O)(OC2CCCCC2)c2ccc(N(C)C)cc2)cc(OC)c1OC (configuration not stated)
/ | ? | / | ? | O=c1[nH]c(NCCO)c(N=Cc2ccccc2)c(=O)[nH]1
-16% | -2% | / | -1.4% | O=C(Nc1nnc(S(=O)(=O)N2CCN(c3ccc(F)cc3)CC2)s1)c1ccco1
-19% | 0% | 4 | -1.7% | O=[N+]([O-])c1ccc2nc(CN3CCCCC3)[nH]c2c1
-62% | ? | / | ? | COc1cc2ccccc2cc1C(=O)Nc1ccccc1Cl
-8% | -24% | 11 | -0.4% | Cc1ccc(NC(=O)CCn2c(=O)[nH]c3ccsc3c2=O)cc1
/ | -7% | / | -1.7% | CC1CCN(C(=O)CN2C(=O)NC(c3ccccc3)(c3ccccc3)C2=O)CC1
0% | 5% | -3 | 1.3% | CSCCC(NC(=O)c1cccc(S(=O)(=O)N2CCOCC2)c1)C(=O)Nc1cccc(C)c1 (configuration not stated)

Three compounds already listed, sorted by molecular weight, ascending:
miR-21 reporter | Rango release inh | GLA inh pH 4.5 | Rango-impB inh | SMILES
/ | -7% | / | -1.7% | CC1CCN(C(=O)CN2C(=O)NC(c3ccccc3)(c3ccccc3)C2=O)CC1
-3% | -4% | -5 | 3.5% | COc1cc(C(O)P(=O)(OC2CCCCC2)c2ccc(N(C)C)cc2)cc(OC)c1OC (configuration not stated)
0% | 5% | -3 | 1.3% | CSCCC(NC(=O)c1cccc(S(=O)(=O)N2CCOCC2)c1)C(=O)Nc1cccc(C)c1 (configuration not stated)

(more compounds)
miR-21 reporter | Rango release inh | GLA inh pH 4.5 | Rango-impB inh | SMILES
-3% | 0% | -27 | 5.0% | CCC/C=N/NC(=O)CNC(=O)c1ccccc1Cl
23% | -19% | / | 3.8% | CCOc1cc(-c2nccc3cc(OC)c(OC)cc23)cc(OCC)c1OCC
4% | -10% | / | ? | NCCc1nnc(SCC(=O)Nc2cccc(Cl)c2)o1
-13% | 21% | -2 | -3.3% | CC(C)(C)NCC(O)COc1ccccc1C(C)(C)C (configuration not stated)
1% | 3% | -1 | 3.4% | CCCCCn1c(CCCNC(=O)CC)nc2ccccc21
-1% | 13% | 6 | 3.2% | Cc1ccccc1-c1nc(CN2CCC(C(=O)NCc3ccco3)CC2)c(C)o1
-3% | -7% | / | -6.5% | COc1cccc(-c2nc(CS(=O)(=O)CC(=O)NCCCN3CC(C)CC(C)C3)c(C)o2)c1 (configuration not stated)
/ | 26% | / | -0.2% | COc1cc(Cl)c(C)cc1NC(=O)COC(=O)C1=NN(c2ccccc2)C(=O)CC1
-2% | 1% | 0 | 3.5% | CCCn1c(S(=O)(=O)O)nc2ccccc21
/ | -7% | / | 1.9% | OC[C@H]1O[C@@](CO)(O[C@H]2O[C@H](CO)[C@@H](O)[C@H](O)[C@H]2O)[C@@H](O[C@H]2O[C@H](CO)[C@@H](O)[C@H](O)[C@H]2O)[C@@H]1O
-16% | 20% | / | 0.0% | O=C(Nc1ccc(F)c(Cl)c1)c1cccnc1

Screening results (PubChem)

The list is partial, so the mix of outcomes need not match the whole.
